Env fusion inh: HIV envelope-mediated fusion inhibition | inhibition, % at 12.3 µM | HeLa-JRFL Env/CEM21 cell fusion, luciferase | hit rate 1.1% among 360,000 | AID 651610;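 active = mean replicate inhibition score of at least 50 and every replicate individually at or above 50; inconclusive = only one of the two criteria met; inactive = mean below 50 and not all replicates reaching 50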;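 also: 0% = plate neutral controls and 100% = maraviroc near 300 nM; one replicate is shown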
eIF4H inh: inhibitors of RNA binding by human eIF4H | eIF4H fluorescence polarization binding assay | inhibition, % at 35 µM | Q15056 | hit rate 0.94% among 290,000;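 active = 50% or more with normal probe brightness, or confirmed in later tests; inconclusive = above 50% with abnormal brightness, or retests that disagree; inactive = below 50% or failed in later tests; about a fifth of its hits are not listed in these tables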;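 also: calls also rest on retests at 20 µM and on dose response follow-up; 0% = protein and probe with vehicle and 100% = probe without protein; strong numbers were not always called active; many hits fall short of the cut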
UUG fidelity: yeast start codon fidelity modulation; S. cerevisiae UUG-firefly luciferase reporter, luminescence/redox ratio; activity score, % at 18.7 µM; hit rate 0.13% among 350,000;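 active = replicate mean at a twofold rise or more, about +100% in these data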;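 also: firefly luciferase made from a UUG start codon reports start codon fidelity; reporter light over untreated wells divided by growth signal over untreated wells; some hits fall short of that in this replicate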
PABP FP inh: blocks human PABP binding to poly(A) RNA | fluorescence polarization | P11940 | inhibition, % at 35 µM | AID 2014 | hit rate 1% among 290,000;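 active = 50% or more with normal probe brightness, or confirmed in later tests; inconclusive = above 50% with abnormal brightness, or retests that disagree; inactive = below 50% or failed in later tests; about a fifth of its hits are not listed in these tables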;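 also: calls also rest on retests at 20 µM and on dose response follow-up; controls were probe without protein and protein plus probe with vehicle; some compounds called inactive have numbers as strong as hits; many hits fall short of the cut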
Target sequence (P11940 whole entry, looked up): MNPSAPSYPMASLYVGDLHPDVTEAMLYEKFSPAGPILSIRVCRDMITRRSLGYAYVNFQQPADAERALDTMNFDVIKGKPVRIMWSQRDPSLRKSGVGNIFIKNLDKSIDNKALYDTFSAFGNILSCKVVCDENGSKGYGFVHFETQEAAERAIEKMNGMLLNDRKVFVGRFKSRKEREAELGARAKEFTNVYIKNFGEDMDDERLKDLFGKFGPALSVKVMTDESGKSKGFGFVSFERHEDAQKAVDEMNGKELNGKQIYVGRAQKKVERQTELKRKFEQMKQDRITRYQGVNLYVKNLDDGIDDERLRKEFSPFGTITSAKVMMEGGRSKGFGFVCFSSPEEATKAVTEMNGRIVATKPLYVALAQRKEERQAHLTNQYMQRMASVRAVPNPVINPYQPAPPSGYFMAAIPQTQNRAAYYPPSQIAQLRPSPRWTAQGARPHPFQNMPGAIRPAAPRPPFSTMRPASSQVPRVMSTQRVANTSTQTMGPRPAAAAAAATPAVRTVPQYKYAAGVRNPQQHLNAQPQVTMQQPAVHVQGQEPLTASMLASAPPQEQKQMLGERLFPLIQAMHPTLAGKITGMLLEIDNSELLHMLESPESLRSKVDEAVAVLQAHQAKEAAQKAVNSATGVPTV
CSC inhib: cancer stem cell inhibition | AID 2717 | cancer stem cell-like cells viability, luminescence | inhibition, % at 7.5 µM | hit rate 1.1% among 300,000;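 active = mean at 75% or more and at least half the replicates too; inconclusive = mean and replicates disagree; tested in HMLE shEcad cells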;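 also: 0% = median of negative and 100% = median of positive control wells; the first replicate is given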
MT1-MMP act inh: MT1-MMP (human) activation inhibition | hit rate 0.061% among 360,000 | HT1080 RFP-PRO-GFP cells, GFP/RFP ratio fluorescence, overnight; percent of plate control window, DMSO zero | GFP/RFP ratio change, % at 20 µM | AID 651647 | P50281;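 active = GFP/RFP ratio change of at least 30% with cell ATP level not reduced by more than half and red fluorescence within 50% of control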; also: strong numbers were not always called active
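Assay system – RFP-PRO-GFP reporter HT1080 cells · Compound dosing – single dose of 20 µM compound, 1% DMSO final · Incubation – overnight compound exposure at 37 °C · Measure – GFP/RFP fluorescence ratio · Benchmarks – DMSO wells and RFP-L50D-GFP cells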
Rce1 inhib: blocks yeast Ras-converting enzyme; yeast membranes, quenched prenylated peptide cleavage fluorescence; calls only; hit rate 0.27% among 290,000; AID 2563;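 active = fall in fluorescence gain of 50% or more versus controls, with final raw signal at or below 3038400; inconclusive = same 50% fall but final raw signal above 3038400; inactive = fall in fluorescence gain under 50%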;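 also: plate controls were neutral control wells for no effect and wells lacking membranes for full effect; tested at 10 µM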
MT1-MMP act inh RFP: recorded beside MT1-MMP act inh, whose call it bears; RFP signal change, %; measured here: RFP expression control read;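 0 = vehicle wells; hits needed this value within 50% of zero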
* = called active by the depositor; i = inactive; ? = inconclusive; nt = not tested or not shown; & = joins results of further samples. Only part of the results is shown; count on the stated rates, not on these rows.

SMILES	Env fusion inh	eIF4H inh	UUG fidelity	PABP FP inh	CSC inhib	MT1-MMP act inh	MT1-MMP act inh RFP	Rce1 inhib
Cc1cccc(C)c1OCC(=O)Nc1ccc2c(c1)C(=O)NC2=O	-11.0	-8.1	-19.9	2.9	-14.0	1.5	1.1	i
CCOc1ccccc1N(CC(=O)O)S(=O)(=O)c1ccc(C)cc1	nt	-0.6	-12.1	6.0	-19.4	0.4	2.3	i
CCCCc1[nH]nc2c1C1(C(=O)N(CC)c3ccccc31)C(C#N)=C(N)O2 (centres undefined)	nt	-11.9	-10.5	3.5	-6.5	0.5	-2.3	i
O=C(COc1ccc2cc(Br)ccc2c1)N1CCCC1	-48.3	0.8	-15.2	4.8	-23.0	2.2	-3.9	i
CC(=O)Nc1ccc(N2CCCCC2)cc1	nt	-8.5	-21.3	3.9	-7.6	8.2	7.4	i
N/C(=N\OC(=O)C1CC1)c1ccc([N+](=O)[O-])s1	-16.5	0.6	nt	-9.0	11.4	3.6	-0.1	nt
CNc1nc(Sc2cccc(C(F)(F)F)c2)cc(C(F)(F)F)n1	-298.2	-0.6	-6.0	4.9	31.7	-8.7	-6.7	i
O=C(/C=C/c1c(F)cccc1Cl)NCc1ccc2c(c1)OCO2	-9.2	10.8	-9.7	-11.0	5.3	5.2	2.0	i
CCOc1ccccc1N(CC(=O)NCc1ccncc1)S(=O)(=O)c1ccccc1	55.4	2.1	-28.6	5.5	-15.2	-0.6	1.2	i
COc1cc2c3nnc(-c4ccc(F)cc4)c-3cn(Cc3cccc(C)c3)c2cc1OC	9.7	?	-10.3	8.4	17.6	-3.2	-0.1	i
CCOn1c(=O)c(-c2cccc3ccccc23)[n+]([O-])c2ccccc21	5.9	32.3	-1.1	11.1	-13.6	5.8	7.1	i
Cc1nn(C)c(Oc2ccccc2)c1CCNS(=O)(=O)c1ccc(Cl)cc1	1.4	0.1	-38.6	-10.2	-19.1	0.8	-8.3	i
Cc1cccc(N(C(=O)c2csnn2)C(C(=O)NC(C)(C)C)c2cccnc2)c1 (centres undefined)	0.6	4.3	nt	-12.6	-10.2	-1.2	3.3	i
CCc1cccc(NC(=O)CCS(=O)(=O)c2cc3c(cc2C)NC(=O)CO3)c1	-19.0	-1.1	-18.2	-7.1	-16.4	2.5	4.0	i
C=CCn1c(SCC(=O)NCc2ccco2)nc2sc3c(c2c1=O)CCC3	65.1*	19.1	-3.3	3.9	nt	1.4	-1.7	i
CCOC(=O)C(=O)N/N=C(/c1ccccc1)c1ccc(OC)cc1	-1.5	-9.5	-1.9	-0.9	-6.9	2.4	1.5	i
CCc1cc(Cn2nc(-c3ccccc3)cc2C(=O)NCc2cccs2)on1	-12.6	nt	-2.8	nt	29.7	4.8	-11.2	nt
CCOc1ccc(OC(=O)C(CCS(C)(=O)=O)N2C(=O)c3ccccc3C2=O)cc1 (centres undefined)	-16.4	-11.0	5.2	-7.0	19.6	0.3	2.8	i
Cc1nc2cccc(C(=O)NCc3ccccc3)c2o1	nt	-0.6	-16.8	7.4	-14.7	1.6	2.1	i
CC(=O)NC(=S)Nc1ccc(NC(=O)COc2ccc(Cl)cc2Cl)cc1	-23.0	3.0	-10.6	4.8	1.6	0.2	-3.3	i
O=C(/C=N/O)NCCN1CCCCC1	nt	-0.7	-22.6	3.2	-5.2	-0.5	0.2	i
Cc1nn(C)c(Cl)c1/C=C/C(=O)O	0.9	-2.7	nt	10.9	-0.9	1.9	3.0	i
CCNC(=S)NNC(=O)Cn1c(=O)c2c(ncn2CCOC)n(Cc2ccccc2)c1=O	-1.7	3.5	-14.5	6.8	-14.2	-0.7	2.9	i
Cn1cnnc1SCC(=O)Nc1ncc(C(F)(F)F)cc1Cl	-3.4	11.7	-0.9	19.2	11.2	0.3	-1.1	i
CCn1c(N)[n+](CC(=O)Nc2ccc(SC(F)F)cc2)c2ccccc21	-72.7	-9.7	-8.0	-12.4	1.6	-2.9	-10.4	i
CC(C)CCOP(=O)(c1ccc(N(C)C)cc1)C(O)c1ccc(Cl)cc1Cl (centres undefined)	43.5	1.5	nt	-10.2	5.2	-0.9	-3.0	i
CN(C)CC(=O)Nc1ccc(Oc2ccc(Cl)cc2)cc1	1.6	-8.5	nt	12.6	32.3	-0.4	0.1	i
CC(=O)NC(Cc1cccc(F)c1)C(=O)NC1CCN(C(=O)Nc2ccccc2)CC1 (centres undefined)	-4.6	-0.9	-8.4	4.8	-4.5	-1.0	1.8	nt
CCC(C)(C)NC(=O)C(c1sccc1C)N(Cc1ccco1)C(=O)c1csnn1 (centres undefined)	55.4*	-7.3	-26.3	15.4	nt	-3.5	-0.1	i
O=C(c1ccccc1-c1nc2ccccc2[nH]1)N1CCOCC1	nt	2.8	-25.0	1.6	-1.2	0.1	0.5	i
O=C1NC2=C(C(=O)OC2)C(c2ccc(OC(F)(F)F)cc2)N1 (centres undefined)	11.5	-2.5	7.3	13.5	-14.4	1.6	-0.3	i
COc1ccccc1NC(=O)NCC(=O)Nc1ccc(F)c(F)c1	nt	6.4	-34.3	1.2	-1.0	-5.5	-3.2	i
CCOC(=O)C1=CN(Cc2ccco2)S(=O)(=O)NC1c1ccc(C(F)(F)F)cc1 (centres undefined)	18.2	nt	5.3	nt	nt	-0.3	-5.1	nt
Cc1ccccc1-n1c(SCC(=O)NCC2CCCO2)nnc1-c1ccncc1 (centres undefined)	-12.0	nt	-14.3	nt	-5.9	2.6	4.4	nt
Cc1nc(S/C(=C/c2ccc(-c3ccc(Cl)cc3)o2)C(=O)O)n[nH]1	nt	43.3	6.8	15.0	19.3	0.4	1.5	i
O=C(NC1CC1)C1=C[C@@H](c2ccc(Br)cc2)C[C@@H](OCc2ccc(CO)cc2)O1	-11.6	-5.1	-11.2	-10.7	-1.0	4.0	3.0	i
Oc1ccc(NC(=S)Nc2ccccc2)cc1	7.1&9.1	-7.8&2.4	-8.6	2.2&12.9	1.2&-6.5	-0.1&7.1	3.4&7.5	i
COc1c(C)cc(C(O)c2ncc(-c3ccc4ccccc4c3)[nH]2)cc1C (centres undefined)	12.0	nt	-42.5	nt	nt	-0.2	-5.1	nt
CCCCCOC(=O)C1=C(C)NC(=O)NC1c1ccc([N+](=O)[O-])cc1 (centres undefined)	15.1	-0.9	0.1	-9.1	-4.1	-1.0	-3.2	i
O=C(N/N=C/c1c(O)ccc2ccccc12)C(=O)N1CCCC1	53.4	nt	-7.9	nt	nt	-3.4	2.6	nt
COCCCn1cc(C(=O)c2cc(OC)ccc2OCC(=O)N2CCCCC2C)cc(C#N)c1=O (centres undefined)	16.5	-3.4	nt	-13.5	nt	2.7	5.8	i
COc1ccccc1CNC(=O)CCn1c(=O)sc2ccccc21	4.7	0.1	-10.1	-11.3	-8.0	-7.6	5.1	i
O=C1CC(c2ccc(OCCCCCOc3ccc(C4CC(=O)NC4=O)cc3)cc2)C(=O)N1 (centres undefined)	23.3	-0.8	1.6	-13.5	nt	-6.2	-10.7	i
CC(C)Sc1nc(SCC(=O)NCc2ccco2)c2c3c(sc2n1)COC(C)(C)C3	nt	3.8	-4.3	-6.0	7.8	2.7	-10.8	i
CC(C)(C)C(=O)Nc1ccc(F)cc1[N+](=O)[O-]	4.2	-2.2	nt	10.4	-1.8	2.0	2.7	i
O=C(CCc1ccccc1)N=C1SC2CS(=O)(=O)CC2N1c1ccccc1F (centres undefined)	12.9	nt	nt	nt	0.7	-2.9	0.3	i
O=C(c1ccco1)N1CCN(C(=O)C2CCCO2)CC1 (centres undefined)	nt	-6.8	nt	-4.4	-8.9	2.6	5.2	i
CCOC(=O)C1CCCN(C(=O)Cn2nc(C)c3c(C)n(-c4ccccc4)nc3c2=O)C1 (centres undefined)	1.4	-21.9	-4.3	8.7	-2.3	nt	nt	i
O=C(N=Nc1c(O)[nH]c2ccc(Cl)cc12)c1cc(-c2cccs2)nc2ccccc12	3.6	-12.6	-18.7	-11.9	15.5	14.0	-0.3	i
COC(=O)N1CN(C(=O)OC)CN(C(=O)OC)C1	nt	-1.1	nt	-3.4	-11.1	-2.3	-0.2	i

An excerpt from above in order of molar mass, smallest number first:
SMILES	Env fusion inh	eIF4H inh	UUG fidelity	PABP FP inh	CSC inhib	MT1-MMP act inh	MT1-MMP act inh RFP	Rce1 inhib
O=C(c1ccco1)N1CCN(C(=O)C2CCCO2)CC1 (centres undefined)	nt	-6.8	nt	-4.4	-8.9	2.6	5.2	i
CCOC(=O)C1CCCN(C(=O)Cn2nc(C)c3c(C)n(-c4ccccc4)nc3c2=O)C1 (centres undefined)	1.4	-21.9	-4.3	8.7	-2.3	nt	nt	i
COCCCn1cc(C(=O)c2cc(OC)ccc2OCC(=O)N2CCCCC2C)cc(C#N)c1=O (centres undefined)	16.5	-3.4	nt	-13.5	nt	2.7	5.8	i

The listing continues:
SMILES	Env fusion inh	eIF4H inh	UUG fidelity	PABP FP inh	CSC inhib	MT1-MMP act inh	MT1-MMP act inh RFP	Rce1 inhib
COc1ccc(S(=O)(=O)Nc2cccc(C)n2)c2ccccc12	nt	5.1	12.9	13.1	-10.2	10.1	1.8	i
CC1(C)CC(=O)c2cc(OCC(=O)NCCN3CCCc4ccccc43)ccc2O1	30.6	-6.2	-16.9	-1.0	-7.8	3.6	5.1	nt
O=C(c1cc(-c2ccc3c(c2)OCO3)on1)N1CCCCC1	-25.7	3.5	-54.0	7.8	2.5	-3.7	-3.0	i
COc1ccc(S(=O)(=O)N(C)CC(=O)NC2CCCC2)cc1OC	3.7	3.3	-10.1	9.7	-9.3	-0.8	4.0	i
CCC(Sc1nc2ccccc2c(=O)[nH]1)C(=O)O (centres undefined)	-1.7	-11.6	-11.4	-17.1	nt	2.3	4.5	i
CCS(=O)(=O)c1nc(S(=O)(=O)c2ccc(C)cc2)c(N2CCCCCC2)s1	-3.1	nt	-9.8	nt	nt	0.2	-0.1	nt
COc1cc(NC(=O)CCC(=O)Nc2ccc3nc(N4CCOCC4)cc(C)c3c2)cc(OC)c1OC	-39.2	-6.7	-7.2	-1.8	-7.1	6.2	-1.0	nt
Oc1c(C(c2ccccc2Cl)N2CCCC2)ccc2cccnc12 (centres undefined)	23.6	14.6	nt	17.0	-8.5	1.2	-7.1	i
Cc1cccc(NC(=O)CSCc2cc(=O)n3ccsc3n2)c1C	nt	-0.7	-10.6	-5.5	-0.5	1.6	2.6	i
O=c1[nH]cnc2c1sc(=S)n2-c1ccccc1	-24.7	-1.4	-27.0	10.3	-2.8	8.1	-0.1	i
COc1ccc(N2CCN(C(=O)C3CCN(C(=O)c4ccc([N+](=O)[O-])cc4)CC3)CC2)cc1	17.4	-5.2	-1.1	-1.6	-2.9	2.2	-8.2	i
O=C(Cc1c(F)cccc1Cl)NCCc1c[nH]c2ccccc12	-6.4	7.6	-20.5	0.1	-2.3	3.2	0.9	i
O=C(COc1ccc(Cl)cc1)N1CCN(S(=O)(=O)c2ccc(Cl)cc2)CC1	23.1	2.4	1.5	-4.9	-8.4	-0.8	-9.1	i

Profiles, quoted from the list.
O=C(Cc1c(F)cccc1Cl)NCCc1c[nH]c2ccccc12 reads Env fusion inh = -6.4; eIF4H inh = 7.6; UUG fidelity = -20.5; PABP FP inh = 0.1; CSC inhib = -2.3; MT1-MMP act inh = 3.2; MT1-MMP act inh RFP = 0.9; Rce1 inhib = i
COc1ccc(S(=O)(=O)Nc2cccc(C)n2)c2ccccc12 reads Env fusion inh = nt; eIF4H inh = 5.1; UUG fidelity = 12.9; PABP FP inh = 13.1; CSC inhib = -10.2; MT1-MMP act inh = 10.1; MT1-MMP act inh RFP = 1.8; Rce1 inhib = i
O=C(c1cc(-c2ccc3c(c2)OCO3)on1)N1CCCCC1 reads Env fusion inh = -25.7; eIF4H inh = 3.5; UUG fidelity = -54.0; PABP FP inh = 7.8; CSC inhib = 2.5; MT1-MMP act inh = -3.7; MT1-MMP act inh RFP = -3.0; Rce1 inhib = i

Screens as filed in PubChem BioAssay.
